# Screening data as filed in PubChem.
# NPR1 antag = Natriuretic polypeptide receptor (hNpr1) antagonism - Primary qHTS; Potency, µM (series often up to 46.3 µM), for inactives: top-dose activity change, negative = inhibition, usual class: inhibitors; AID 1347048, 2019; 1.6% of 76,000 active; HEK293 hNpr1 GloSensor cGMP, ANP-stimulated luminescence; active = well fitted inhibition curve with a large enough effect; inconclusive = small, poorly fitted or top-dose-only effect; inactive = no such curve, though single readings can be large or run the other way;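 further: nearly all actives have a fitted effect of over 60% in size; nearly all hits also lower the signal before the agonist is added; a reference antagonist and vehicle were the controls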
# Target sequence (P16066 whole entry, looked up): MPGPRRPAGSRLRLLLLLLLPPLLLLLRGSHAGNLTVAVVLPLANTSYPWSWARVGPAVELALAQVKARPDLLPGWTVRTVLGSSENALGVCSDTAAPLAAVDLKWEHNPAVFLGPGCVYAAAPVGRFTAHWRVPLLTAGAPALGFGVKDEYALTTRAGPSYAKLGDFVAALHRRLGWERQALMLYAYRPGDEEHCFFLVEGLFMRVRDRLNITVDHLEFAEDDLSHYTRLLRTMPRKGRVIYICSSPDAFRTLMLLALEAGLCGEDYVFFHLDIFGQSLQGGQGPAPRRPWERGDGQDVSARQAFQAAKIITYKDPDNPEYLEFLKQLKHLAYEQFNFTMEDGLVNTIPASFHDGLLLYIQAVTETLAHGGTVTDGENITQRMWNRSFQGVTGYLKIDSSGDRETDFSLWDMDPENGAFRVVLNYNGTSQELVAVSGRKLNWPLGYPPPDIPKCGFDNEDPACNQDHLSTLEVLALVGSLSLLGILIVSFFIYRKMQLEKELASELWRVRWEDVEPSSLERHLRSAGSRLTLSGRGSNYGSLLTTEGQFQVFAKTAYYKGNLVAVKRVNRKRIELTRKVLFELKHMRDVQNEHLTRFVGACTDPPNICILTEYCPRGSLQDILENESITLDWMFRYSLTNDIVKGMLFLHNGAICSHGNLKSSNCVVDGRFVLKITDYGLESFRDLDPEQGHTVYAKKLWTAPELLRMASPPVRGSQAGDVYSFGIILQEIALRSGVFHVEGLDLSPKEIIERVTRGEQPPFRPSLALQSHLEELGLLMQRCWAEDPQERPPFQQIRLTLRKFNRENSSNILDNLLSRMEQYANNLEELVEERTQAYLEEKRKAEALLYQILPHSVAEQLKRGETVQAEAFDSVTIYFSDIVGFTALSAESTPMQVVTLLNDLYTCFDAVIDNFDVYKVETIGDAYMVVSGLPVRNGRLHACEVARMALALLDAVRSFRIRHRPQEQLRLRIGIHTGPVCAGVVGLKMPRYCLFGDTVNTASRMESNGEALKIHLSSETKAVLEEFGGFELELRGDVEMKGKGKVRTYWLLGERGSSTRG
#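 Compound pre-incubated 30 min at room temperature on GloSensor-loaded HEK293 cells stably carrying hNpr1 and the pGS-40F cGMP biosensor. Stimulation uses hNppA at 0.1 nM final; luminescence is taken at baseline and 20 min post-agonist.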
# Numbers without * were called inactive; ? = inconclusive; [ ] = another dose, or the depositor's remark. On the % scale 0 is the no-effect control and ±100 the full control effect; potency means the concentration at half of the fitted maximal effect.
SMILES,NPR1 antag
O=C(NC1CC1)[C@@H]1C[C@H](Oc2ccccc2)CN1C(=O)c1n[nH]c(=O)c2ccccc12,2%
O=C(c1ccccc1OCC1CCCN(Cc2ccc(O)c(F)c2)C1)N1CCCCC1 (stereo not drawn),-2%
O=C(CCC1CCCN(S(=O)(=O)c2ccccc2F)C1)NC1CCS(=O)(=O)C1 (stereo not drawn),-10%
COc1ccc(CC(=O)N[C@@H]2CCNC[C@H]2O)c(OC)c1,3%
NC1CCCN(Cc2ccccc2F)C1 (stereo not drawn),9%
O=C(Nc1cc(F)ccc1F)C1CN(S(=O)(=O)c2cccnc2)CC12CCCCC2 (stereo not drawn),6%
CC(C)c1nnc(C2CN(C(=O)Cc3ccccc3Cl)CC23CCOCC3)o1 (stereo not drawn),-7%
COc1ccc(Cn2c3c(c(=O)n2Cc2ccccc2)CCN(C(=O)c2cccc(O)c2)C3)cc1,-3%
CCNC(=O)c1c(C)oc2c1CN(Cc1ccc(Br)o1)CC2,-2%
C[S+](=O)([O-])CCn1ncc2cc(OCC3CCN(c4ncccn4)CC3)ccc21,?
O=C1[C@@H]2C[C@@H](CN2C(=O)c2ccccn2)Oc2ccccc2N1Cc1ccc(OC(F)(F)F)cc1,4%
CC(C)(CC(=O)O)CC(=O)N[C@H]1C[C@H]2C(=O)Nc3ccc(-c4ccsc4)cc3C(=O)N2C1,1%
O[C@H]1[C@H](NCc2ccc(F)cc2)[C@H]2CO[C@H](O2)[C@@H]1Oc1ccccc1,0%[70.6 µM]
COCCC(=O)N1CC(F)(F)C[C@H]1c1nc(COC)no1,0%
C#CCN[C@H]1C[C@@H]2c3[nH]c4ccccc4c3C[C@@H](C(=O)OC)N2[C@H](c2ccc(F)cc2)C1,-2%[70.6 µM]
O=C(c1ccccc1F)N1CCCC2(C1)NC(=O)N(Cc1cccc(Cl)c1)C2=O (stereo not drawn),-28%
NC(=O)NCC(=O)N1CCCC(c2cc(N3CCOCC3)ncn2)C1 (stereo not drawn),9%
Fc1ccc(CN2C[C@@H](F)[C@@H](OCc3nc4ccccc4o3)C2)cc1,-8%[70.6 µM]
COc1ccc2c(c1)OCC(CNC(=O)c1csc(C(C)=O)c1)C2 (stereo not drawn),1%
CCn1cnnc1CC1CCN(C(=O)Nc2ccccc2)C1 (stereo not drawn),0%

# 7 records picked at random from the list so far:
SMILES,NPR1 antag
CC(C)(CC(=O)O)CC(=O)N[C@H]1C[C@H]2C(=O)Nc3ccc(-c4ccsc4)cc3C(=O)N2C1,1%
CC(C)c1nnc(C2CN(C(=O)Cc3ccccc3Cl)CC23CCOCC3)o1 (stereo not drawn),-7%
C[S+](=O)([O-])CCn1ncc2cc(OCC3CCN(c4ncccn4)CC3)ccc21,?
NC(=O)NCC(=O)N1CCCC(c2cc(N3CCOCC3)ncn2)C1 (stereo not drawn),9%
O=C1[C@@H]2C[C@@H](CN2C(=O)c2ccccn2)Oc2ccccc2N1Cc1ccc(OC(F)(F)F)cc1,4%
COc1ccc(Cn2c3c(c(=O)n2Cc2ccccc2)CCN(C(=O)c2cccc(O)c2)C3)cc1,-3%
Fc1ccc(CN2C[C@@H](F)[C@@H](OCc3nc4ccccc4o3)C2)cc1,-8%[70.6 µM]

# The results go on.
SMILES,NPR1 antag
OC[C@H]1CCN(c2ccnc3c(C(F)(F)F)cccc23)C[C@H]1O,-1%
COCC(=O)NC[C@H]1CCN(Cc2ccncc2)C[C@H]1N(C)C,8%
CS(=O)(=O)N1CCCC1c1noc(CCC(=O)NCC2CC2)n1 (stereo not drawn),2%
Cn1cnc(S(=O)(=O)N2CCCC(CO)CCNC(=O)CC2)c1 (stereo not drawn),5%
Cc1cccc(C(=O)NC2CCN(c3cc(-c4cccs4)[nH]n3)CC2)c1,-24%
O=C1OC[C@@H]2CCN(Cc3ccccc3)Cc3ccccc3N12,-2%[70.6 µM]
CCOCC(=O)N1CCC(C2CCN(S(C)(=O)=O)CC2)C1 (stereo not drawn),0%
COc1ccccc1N1CCN([C@H]2[C@@H]3OC[C@@H](O3)[C@@H](N(CC3CC3)CC3CC3)[C@@H]2O)CC1,1%
CC(=O)N1CCC(c2nc(-c3nnn4c3COC(c3ccc(C)cc3)C4)no2)CC1 (stereo not drawn),-3%
COc1ccc(NC(=O)N2C[C@@H]3C[C@H](C2)c2ccc(NC(=O)Nc4ccc(C(C)=O)cc4)c(=O)n2C3)cc1,5%
COc1ccc(NC(=O)c2c(OC)cc(=O)n3c2CCCC3)cc1,-6%
CNC(=O)[C@@H]1CN(C(=O)c2cc(C)n(CCOC)c2C)C[C@H]1c1n[nH]c(C)n1,1%
COc1ccc(OC)c(NC(=O)Cn2c(N3CCC(C)CC3)nc(C)cc2=O)c1,13µM*
COC[C@@H]1CN(C(=O)c2ccc(OC)cc2C)C[C@H]1c1ccncc1,2%
Cc1nc(C)c(C(=O)N2CCC(Oc3ccccc3-c3nc(-c4ccccc4)no3)C2)s1 (stereo not drawn),2%
OC1(c2csc(CN3CCN(c4ccccn4)CC3)n2)CCN(Cc2ccccc2)CC1,-2%
CCn1c(-c2ccccc2)nn(CC(=O)NCc2ccc3nonc3c2)c1=O,-7%
COCCN1CCCC(c2[nH]ccc2C(=O)NCCc2c[nH]c3ccccc23)C1 (stereo not drawn),4%
O=C(NCCCc1ccccc1F)[C@H]1CCC[C@@H](O)C1,0%
COc1ccccc1OCCNC(=O)C1N(C(C)C)C(=O)C12CCCC2 (stereo not drawn),-1%
O=C1[C@@H]2C[C@@H](O)CN2C2(CN(Cc3cccc(F)c3)C2)C(=O)N1Cc1ccccc1,0%[70.6 µM]
CN1C[C@@H](NC(=O)c2ccccn2)C[C@H]1c1nc(-c2ccc(OC(F)(F)F)cc2)no1,-25%[70.6 µM]
CCNC(=O)c1cccnc1OC1CCN(C(=O)Cc2cccc(Cl)c2)C1 (stereo not drawn),4%
Cc1cc(C(F)(F)F)nn1CC(=O)N1CCN2CCS(=O)(=O)N(C3CC3)C(=O)C2C1 (stereo not drawn),1%
CC(=O)N[C@H]1CN(C2CCN(c3ccc(F)cc3C)CC2)C[C@@H]1C1CC1,2%
CCOCC(=O)N1CCC(C2CCNC2)CC1 (stereo not drawn),9%
O=C(CCNC(=O)c1cnccn1)NC1CCCc2c1[nH]c1ccc(Cl)cc21 (stereo not drawn),4%
CCOc1ccccc1C(=O)N[C@@H]1CN(Cc2ccncc2)C[C@H]1CN(C)C,-3%
CCOc1ccc(NC(=O)N2CCC(CC(=O)NCc3ccccc3)C2)cc1 (stereo not drawn),3%
O=C(N[C@H]1CO[C@H]2[C@@H]1OC[C@@H]2Nc1nccc(-c2ccccc2)n1)N1CCOCC1,5%[70.6 µM]
CN(C)c1ccc(CN2CC[C@H](c3nc4ccc(C#N)cc4[nH]3)C2)cc1,-17%[70.6 µM]
CCN1c2cc(C(=O)Nc3ccc(C(N)=O)cc3)ccc2C(=O)N2CCCCCC21 (stereo not drawn),-2%
CCOc1cccc(-c2noc(-c3nnn4c3COC(c3ccc(F)cc3)C4)n2)c1 (stereo not drawn),-2%
C[C@H](C(=O)N1CCCC1)C1CC[C@@]2(C)Cc3sc(CS(=O)(=O)C(C)(C)C)nc3[C@@H](C)[C@@H]2[C@H]1O (stereo partly drawn),-1%
O=C(CCc1ccccc1)N1CCCC(Cc2nc(C3CCOCC3)no2)C1 (stereo not drawn),13%
F[C@@H]1CN(C2CCC2)C[C@@H]1OCc1nc2ccncc2[nH]1,0%[70.6 µM]
Cc1nc(-c2ccc(F)cc2)n(CC(=O)Nc2cc(F)ccc2F)c(=O)c1CCO,-9%
CN(C)c1ccc(C(=O)N[C@H]2C[C@H]3C(=O)NC[C@@H](CCC(=O)NCc4ccccc4)N3C2)cc1,1%
CCCc1cc(C(=O)N[C@@H]2COCC[C@H]2Oc2ccc(C(=O)O)cc2)n[nH]1,4%
COC[C@@H]1CN(c2cnccn2)C[C@H]1C(=O)NCCc1ccncc1,8%

# 5 compounds from above, arranged by number of heavy atoms, largest number first.
SMILES,NPR1 antag
COc1ccc(Cn2c3c(c(=O)n2Cc2ccccc2)CCN(C(=O)c2cccc(O)c2)C3)cc1,-3%
OC1(c2csc(CN3CCN(c4ccccn4)CC3)n2)CCN(Cc2ccccc2)CC1,-2%
O=C(CCc1ccccc1)N1CCCC(Cc2nc(C3CCOCC3)no2)C1 (stereo not drawn),13%
CCCc1cc(C(=O)N[C@@H]2COCC[C@H]2Oc2ccc(C(=O)O)cc2)n[nH]1,4%
NC1CCCN(Cc2ccccc2F)C1 (stereo not drawn),9%

# (continued)
SMILES,NPR1 antag
COc1ccc(CCN(C)C2CCCN(c3ncccc3C#N)C2)cc1OC (stereo not drawn),-4%
CC1(C)[C@H](Cc2cc(CN3CCOCC3)on2)C[C@@H]1NCc1ccccc1O,-4%[70.6 µM]
CCN(CC)C(=O)N1CCC(c2noc(-c3ccccc3)n2)C1 (stereo not drawn),-3%
Cc1ccc(OCC(=O)N2CCC3(CC2)CC(N(C(=O)NC(C)C)C2CC2)CCO3)cc1 (stereo not drawn),-14%
COc1cc(Cl)ccc1C(=O)NC1CCN(c2cc(-c3ccc(F)cc3)[nH]n2)CC1,-4%
Cc1cnc(-c2ccccc2)n1C1CCN(C(=O)Nc2ccccc2F)CC1,-5%
CN(C1CCc2nn(C)c(=O)n2CC1)S(=O)(=O)c1ccc2c(c1)CCC2 (stereo not drawn),5%
O=C(NCc1ccccc1)c1cnc2n1CCN(CC1CCCC1)CC2,-9%[70.6 µM]
Cc1ccc2c(c1)N1C(=O)OC[C@@H]1CCN(C(=O)c1ccccc1)C2,5%[70.6 µM]
CNc1nc2c(s1)C(c1cccc(F)c1)CC(=O)N2 (stereo not drawn),-15%
COc1ccc(C)cc1NC(=O)C1CCN(C(=O)N2CC3CC(C2)[C@H]2CCCC(=O)N2C3)CC1 (stereo partly drawn),3%
CC(=O)NCC1(COc2cccnc2)C[C@@H](O)[C@@H](O)C1 (stereo partly drawn),-1%[70.6 µM]
O=C(NCc1ccc(Cl)cc1)c1ccc2cncn2c1,-23%[70.6 µM]
CC(=O)N1CCC(n2nccc2NC(=O)c2ccc3c(c2)OCO3)CC1,7%
CSc1ncccc1C(=O)N[C@@H]1CCOC[C@H]1Oc1ccc(C#N)cc1,-4%
O=C(Cc1ccccc1)NCCC1CCN(C(=O)Nc2ccc(F)cc2)CC1,0%
O=C(c1cccc(-n2cnnc2)c1)N(Cc1ccsc1)CC1CCCO1 (stereo not drawn),0%
Cc1cccc(CC(=O)N2CCCCCC2c2nnc(-c3ccccc3)o2)c1 (stereo not drawn),-2%
O=C1NCCCCCCN(C(=O)C2CCC2)[C@H]2CCCC[C@@H]12,12%
COc1ccc(-c2cc3c(ccn3C(C)C)c(C(=O)NCc3c(C)cc(C)[nH]c3=O)n2)cn1,1%
Cn1ccnc1C(=O)NCC(=O)N1CCCCCNC(=O)CC1c1ccccc1 (stereo not drawn),7%
Cc1ccc(-n2nc3n(c2=O)CCN(C(=O)c2ccccc2)C3)cc1,0%
COc1ccccc1C(=O)N1CCC2(CC1)CC(=O)c1ccccc1O2,-22%[70.6 µM]
O=C(Cc1ccc(Cl)cc1)N1CCC2(CC1)NC(=O)N(c1ccccc1Cl)N2,-1%
CN(C)[C@@H]1C[C@@H](CO)N(Cc2cc(=O)n3c4c(cccc24)CCC3)C1,0%
Fc1ccc(CCc2nc(C3CCOC3)no2)cc1F (stereo not drawn),7%
C=CCNC(=O)C[C@@H]1CCN(C(=O)C(C)(C)C)C[C@@H]1CC,1%[70.6 µM]
COc1ccc(OCc2nc(C)c(CCO)c(=O)n2CC(=O)Nc2ccc(Cl)cc2F)cc1,-25%
COCCCNC(=O)CN1C(=O)COc2ccc(C(=O)COc3cccc(OC)c3)cc21,-9%
NC(=O)[C@H](CC1CCCCC1)NC(=O)[C@@H]1C[C@@H](NC(=O)Nc2cccc(F)c2)CCN1C(=O)[C@H]1CCCN1,3%
CC1CCCN(C(=O)CN2C(=O)NC3(CCCCC3)C2=O)C1 (stereo not drawn),-1%
COCc1cc(CC2(NC3CCN(C(C)=O)CC3)COC2)no1,1%[70.6 µM]
Cc1ccc(C(=O)N2CCC(C(NC(=O)c3ccccc3C)C(=O)NCC(C)C)CC2)cc1 (stereo not drawn),5%
O=C1NC2(CN(CC3CCCCC3)C2)Oc2ccccc21,11%[70.6 µM]
CN1c2cc(C(=O)NCc3ccc(F)cc3)ccc2C(=O)N2CCCC21 (stereo not drawn),-2%
O=C(NCc1cccnc1)C1CCCN(c2cnn(Cc3ccccc3)c(=O)c2)C1 (stereo not drawn),2%
COCCNC(=O)[C@@H]1C[C@@H](O)CN1C1CCN(C(=O)c2ccc3c(c2)OCO3)CC1,5%
CC1=C[C@@H](CNS(=O)(=O)c2ccccc2)[C@H](C(C)C)C[C@H]1CC(=O)NCc1ccccn1,-2%
CC1CCN(CCc2nc3c([nH]2)CC(C)(C)CNC3=O)CC1,4%
COCCC(=O)N[C@H]1CC[C@]2(C)CCC([C@H](C)C(=O)N3CCC(C)CC3)[C@H](O)[C@H]2[C@@H]1C (stereo partly drawn),1%
O=C(Cc1c[nH]c2ccccc12)N1CCC(Cc2nc(-c3ccccc3)n[nH]2)CC1,-7%
CCOc1ccc(C2Cn3nnc(-c4nc(-c5ccsc5)no4)c3CO2)cc1 (stereo not drawn),-6%
CS(=O)(=O)c1ccc(OCC2(CNCc3cccc(C(F)(F)F)c3)C[C@@H](O)[C@@H](O)C2)cc1 (stereo partly drawn),-4%
CCNC(=O)N1CCCCCCN(C)C(=O)[C@@H]2CCC[C@@H]21,2%
CCn1nc(C)c(CNC(=O)c2cc(COc3ccc4ncccc4c3)on2)c1C,10µM*

# A portion of the library, so the mix of outcomes need not match the whole.
